HNF4A DNA FP – change in binding of human HNF4A to DNA, primary screen, biochemical, fluorescence polarization, FITC-DNA | Hepatocyte nuclear factor 4-alpha (Homo sapiens), P41235 | 1 h | activity change, % at 10 µM | 0.3% of 360,000 active; in the data active means activity change above about 30%, passing the limit was not always enough;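 further: controls were the assay level and a saturating level of protein; the project sought stronger binding though the title names inhibitors; some compounds called inactive have numbers as strong as hits; positive values seem to mean higher polarization but the record does not say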
FGF22 binding – binders of human FGF22 protein, primary screen, FGF22 synaptogenesis inhibitor project, biophysical, thermal shift, single point | Fibroblast growth factor 22 (Homo sapiens), Q9HCT0 | recombinant FGF22 thermal shift, SYPRO orange fluorescence; percent of sucrose octasulfate shift, DMSO zero | calls only at 9.99 µM | 1.5% of 340,000 active;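 active means melting point raised past a set limit in the mean and every replicate; three in four hits are not shown here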
Ecoli growth – E. coli growth inhibition, primary screen, OD600 | AID 1053175, 2014 | OD600 absorbance (test concentration not listed) | Escherichia coli growth, 23 h; hits give low values | 0.21% of 330,000 active;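 active means OD600 absorbance below the run mean of sample wells minus 3.6 SD, in any replicate, cut at about 0.56 in these data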;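 further: stock transfer was 300 nL into about 60 µL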
LANA-H2B inh – blockers of LANA interaction with H2A/H2B – biochemical, FP readout, HTS, primary screen; inhibition, % (no concentration beside the values); AID 2629, 2010; 0.6% of 320,000 active; cell-free LANA-H2A/H2B peptide, fluorescence polarization; in the data active means inhibition mostly above about 10%, no sharp cut-off; inactive means mostly below about 6.7%;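 further: stock transfer was 7.5 nL into about 10 µL; 0% = median of vehicle wells and 100% = median of positive control wells; one replicate is shown; the record names a cut of 25% in any replicate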
Target sequence (Q9QR71 whole entry, looked up): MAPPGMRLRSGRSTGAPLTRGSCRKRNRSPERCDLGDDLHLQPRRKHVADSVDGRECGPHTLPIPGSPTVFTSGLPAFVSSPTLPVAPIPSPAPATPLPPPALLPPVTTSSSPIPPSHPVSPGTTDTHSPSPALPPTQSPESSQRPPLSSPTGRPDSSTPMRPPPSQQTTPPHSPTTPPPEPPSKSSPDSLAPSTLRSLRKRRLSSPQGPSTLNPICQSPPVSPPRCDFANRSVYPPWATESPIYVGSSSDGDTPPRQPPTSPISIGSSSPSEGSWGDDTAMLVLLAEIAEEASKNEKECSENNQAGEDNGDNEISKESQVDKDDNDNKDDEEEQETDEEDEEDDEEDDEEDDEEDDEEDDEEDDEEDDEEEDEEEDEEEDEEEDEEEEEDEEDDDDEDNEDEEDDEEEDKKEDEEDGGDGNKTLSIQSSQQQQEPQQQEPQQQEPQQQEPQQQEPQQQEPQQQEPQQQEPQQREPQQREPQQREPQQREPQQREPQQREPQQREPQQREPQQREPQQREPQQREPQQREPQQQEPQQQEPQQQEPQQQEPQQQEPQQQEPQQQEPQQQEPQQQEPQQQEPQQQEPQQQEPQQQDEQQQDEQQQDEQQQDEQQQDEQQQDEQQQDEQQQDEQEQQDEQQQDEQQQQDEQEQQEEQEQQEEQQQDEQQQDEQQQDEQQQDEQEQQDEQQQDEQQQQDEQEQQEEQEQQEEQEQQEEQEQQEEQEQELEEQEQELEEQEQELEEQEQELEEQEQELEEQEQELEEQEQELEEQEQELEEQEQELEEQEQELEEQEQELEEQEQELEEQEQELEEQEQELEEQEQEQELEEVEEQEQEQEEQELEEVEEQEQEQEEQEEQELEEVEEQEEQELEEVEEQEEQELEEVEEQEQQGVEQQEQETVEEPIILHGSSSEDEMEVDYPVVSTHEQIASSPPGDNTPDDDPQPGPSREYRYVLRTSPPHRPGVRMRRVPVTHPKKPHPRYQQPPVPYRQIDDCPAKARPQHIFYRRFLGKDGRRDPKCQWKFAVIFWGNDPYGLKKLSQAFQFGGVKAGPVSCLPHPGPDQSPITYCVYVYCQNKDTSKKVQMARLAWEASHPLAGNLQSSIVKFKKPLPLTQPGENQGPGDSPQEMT
UCH37 DUB inh – inhibitors of human UCH37 deubiquitinase, primary screen, biochemical, Ub-AMC cleavage, fluorescence; Ubiquitin carboxyl-terminal hydrolase isozyme L5 (Homo sapiens), Q9Y5K5; purified proteasome/UCH37; inhibition, % (test concentration not listed); 0.33% of 330,000 active; AID 588478, 2011;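 active means mean of two replicates above 20%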;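 further: 0% = compound-free wells with enzyme and 100% = wells lacking proteasome; stock transfer was 100 nL into about 20 µL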
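Test system – human UCH37 enzyme supplied as purified proteasome complex · Incubation – 30 min preincubation with enzyme, 25 min cleavage at room temperature · Detection – AMC fluorescence from Ub-AMC cleavage, excitation 355 nm, emission 460 nm · Benchmarks – no-proteasome wells (full inhibition) and compound-free wells (no inhibition)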
B2AR ag – beta2AR agonists driving receptor internalization, primary screen, cell-based, FAP fluorogen, flow cytometry. response, % (test concentration not listed). Am2.2-beta2AR cells; reference of the scale not given here. AID 504454, 2011. Beta-2 adrenergic receptor (Homo sapiens), P07550. 0.43% of 340,000 active;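 active means response above a set limit, near 3 SD of response in nonfluorescent compounds, cut at about 42% in these data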;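 further: stock transfer was 100 nL into about 11 µL; a reference agonist was the positive control; negative values mostly stem from fluorescent compounds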
ALR inh – inhibitors of human ALR sulfhydryl oxidase, primary screen, biochemical, H2O2 detection, HRP-luminol luminescence, single point; AID 485317, 2010; purified ALR, DTT oxidation; inhibition, % (test concentration not listed); FAD-linked sulfhydryl oxidase ALR (Homo sapiens), P55789; 3.8% of 290,000 active;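 active means mean and each replicate at 75% or more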;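 further: stock transfer was 7.5 nL into about 7.5 µL; 0% = neutral wells and 100% = wells with inactivated enzyme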
* marks the source's active call; other numbers are inactive results; i = inactive; · = not tested or not shown.

SMILES	HNF4A DNA FP	FGF22 binding	Ecoli growth	LANA-H2B inh	UCH37 DUB inh	B2AR ag	ALR inh
COc1cccc(CNC(=O)C2CCCN(c3nn4c(=O)cc(C)nc4s3)C2)c1 (centres undefined)	1.4	·	0.73	-3.8	2.4	2	1
CC(C)(Oc1ccc(Cl)cc1)C(=O)N/N=C/c1cn[nH]c1-c1ccccc1	7.8	·	·	-2.1	·	-6	1
COC(=O)c1cc(Br)c(=O)n(CC(C)C)c1	-0.5	·	0.69	2.0	0.5	7	-2
CCC(=O)c1cn(CC(=O)Nc2ccccc2Cl)c2ccccc12	-1.9	i	0.71	0.5	3.6	2	-2
COc1ccc(N2C(=O)NC3CC2(C)Oc2ccc(Br)cc23)cc1OC (centres undefined)	2.4	·	0.76	6.1	-0.6	1	·
COc1ccc(CNC(=O)COC(=O)CCc2nc3ccccc3c(=O)[nH]2)cc1	-9.6	i	0.65	1.3	1.6	2	-16
COc1cc2c(C)nc(C)c(C#N)c2cc1OC	4.5	·	0.69	-3.2	-7.2	5	-4
CC1CCC(C(C)C)C(OC(=O)CSc2nc(N)cc(=O)[nH]2)C1 (centres undefined)	-0.2	i	0.65	-0.5	5.0	14	-14
Cc1n[nH]c(C)c1N=Nc1cc(Cl)ccc1Cl	1.4	·	0.76	-3.0	4.4	1	7
COc1ccc(CN2C(=O)c3cccnc3C2=O)cc1S(=O)(=O)N1CCCC(C)C1 (centres undefined)	1.3	i	0.67	0.0	-0.2	-4	3
COc1ccc(C(=O)C2CCCN(C(=O)Cn3cncn3)C2)cc1OC (centres undefined)	-2.4	i	·	-0.1	·	1	-25
COc1ccccc1C(=O)Nc1cc(C)on1	5.7	i	0.66	-0.2	1.6	-4	-4
Cc1ccc(S(=O)(=O)CC(C)(O)CS(=O)(=O)c2ccc(C)cc2)cc1	3.8	i	0.69	-1.9	6.3	-1	-1
C#CCOCCOCCOCCNc1nc(N2CCN(C(=O)[C@H](CCCCN)n3cc([C@@H](N)CC(C)C)nn3)CC2)nc(N2CCN(C(=O)[C@H](Cc3ccc(O)cc3)n3cc([C@@H](N)CC(C)C)nn3)CC2)n1	·	·	·	0.0	0.5	·	-25
COc1cccc(NC(=S)N2CCN(C(c3ccccc3)c3ccccc3)CC2)c1	-0.2	i	0.72	3.1	5.1	13	-2
CSc1ccc(S(=O)(=O)Nc2ccc3c(c2)OCCO3)cc1	2.1	i	0.69	0.6	0.8	-9	·
O=C(Cn1c(=O)oc2cc(S(=O)(=O)NCc3ccccc3)ccc21)NCc1ccco1	-0.1	i	0.74	1.2	2.8	-9	-11
Cc1cccc(CSc2ccc3nnc(-c4cccs4)n3n2)c1	0.1	i	0.74	0.8	-13	0	-12
COC(=O)c1cc(OC)c(OC)c(OC)c1N	-0.7	·	0.69	0.5	-25	-2	5
Cc1c(C)n(CC(O)CNc2ccccc2)c2ccccc12 (centres undefined)	-0.5	i	0.67	0.6	5.1	0	98*
CCCCn1ccc(=O)c2c(C(F)(F)F)nccc21	-1.3	·	0.71	3.2	6.8	11	-12
Cc1c(NC(=O)C(C)OC(=O)c2ccc(Cl)nc2)c(=O)n(-c2ccccc2)n1C (centres undefined)	-3.9	·	0.68	-1.3	1.7	-17	-11
CN(C)c1ccc(NC(=O)c2cnsn2)cc1	3.2	i	0.69	0.4	4.6	-4	99*
O=C(NCCCl)Nc1ccccc1NS(=O)(=O)c1cccs1	3.4	i	0.71	0.4	4.4	-3	6
O=C(NCCN1CCCCC1)c1ccc(/C=N/O)nc1	1.1	i	·	4.0	·	-7	-4

Just B2AR ag, HNF4A DNA FP and LANA-H2B inh (4 entries from above):
smiles | B2AR ag | HNF4A DNA FP | LANA-H2B inh
CCCCn1ccc(=O)c2c(C(F)(F)F)nccc21 | 11 | -1.3 | 3.2
Cc1c(NC(=O)C(C)OC(=O)c2ccc(Cl)nc2)c(=O)n(-c2ccccc2)n1C (centres undefined) | -17 | -3.9 | -1.3
CN(C)c1ccc(NC(=O)c2cnsn2)cc1 | -4 | 3.2 | 0.4
O=C(NCCCl)Nc1ccccc1NS(=O)(=O)c1cccs1 | -3 | 3.4 | 0.4

Two entries from above, with values under each structure:
Values in the order: HNF4A DNA FP, FGF22 binding, Ecoli growth, LANA-H2B inh, UCH37 DUB inh, B2AR ag, ALR inh
COc1cccc(CNC(=O)C2CCCN(c3nn4c(=O)cc(C)nc4s3)C2)c1 (centres undefined)
 : 1.4, ·, 0.73, -3.8, 2.4, 2, 1
CC(C)(Oc1ccc(Cl)cc1)C(=O)N/N=C/c1cn[nH]c1-c1ccccc1
 : 7.8, ·, ·, -2.1, ·, -6, 1

Next part:
SMILES	HNF4A DNA FP	FGF22 binding	Ecoli growth	LANA-H2B inh	UCH37 DUB inh	B2AR ag	ALR inh
COc1ccc(CCNC(=O)Cn2c(=O)n(-c3ccc(C)c(F)c3)c(=O)c3sccc32)cc1OC	1.3	·	0.7	1.3	2.1	0	2
Cc1cccc(OCCNC(=O)CCNS(=O)(=O)c2ccc3ccccc3c2)c1	-4.5	i	0.65	-1.2	4.4	-3	-4
O=C(NCc1ccccc1)C(c1cccnc1)N(C(=O)c1csnn1)c1ccccc1 (centres undefined)	-1.5	i	0.69	-2.2	0.6	11	-3
COc1ccccc1NC(=O)CC(c1ccc(F)cc1)c1ccco1 (centres undefined)	-0.8	i	0.7	-2.5	4.4	-2	·
CN=C1S/C(=C\c2ccc(SC)cc2)C(=O)N1C	1.8	i	0.69	1.1	2.9	-11	-7
Cc1ccc(CNn2cnnc2SCC(=O)NC(C)(C)C)cc1	4.4	·	0.7	2.0	-0.3	-2	·
CCn1cc(C(=O)O)c(=O)c2cc(F)c(N3CCN(C(=S)Nc4ccc(OC)cc4)CC3)cc21	-2.1	i	0.076*	-5.1	-8.4	-1	21
COC(=O)CC1c2ccccc2S(=O)(=O)N1Cc1ccccc1 (centres undefined)	-3.6	·	0.69	-0.2	0.2	-1	1
CN(CC(=O)NC1(C)CCS(=O)(=O)C1)S(=O)(=O)c1ccc(Cl)cc1 (centres undefined)	3.8	i	0.67	-3.2	0.8	-1	·
Cc1sc2nc(COC(=O)C(NC(=O)c3ccc(Cl)cc3Cl)C(C)C)[nH]c(=O)c2c1C (centres undefined)	11	i	0.71	1.7	1.7	4	0
O=C(c1ccc(Cl)cc1)N1CCN(S(=O)(=O)/C=C/c2ccccc2)CC1	4.9	i	0.68	0.9	3.0	-7	-4
COC(=O)N[C@H](c1ccccc1)[C@@]1(C)C[C@@H]1[C@@H](C)C(=O)Nc1ccc2ccccc2c1	-4.0	i	·	0.7	-1.9	11	13
CCC(C)C(=O)N1c2ccccc2C(=C2SC(C(=O)OC)=C(C(=O)OC)S2)C(=S)C1(C)C (centres undefined)	-0.4	·	0.77	2.6	6.7	6	-21
O=C(COC(=O)CSc1ccc2ccccc2c1Br)NC1CC1	-2.3	i	0.71	2.6	1.5	5	-24
CC1CCCCN1CCCNC(=O)c1nn(C)c2c1CSc1ccccc1-2 (centres undefined)	4.0	i	·	4.8	·	-3	0
COC(=O)C(C)Oc1ccc(-c2nccc(-c3cccs3)n2)cc1 (centres undefined)	-1.0	·	0.78	3.0	1.1	1	1
Cn1c(SCC(=O)N2CCc3ccccc32)nnc1-c1ccc(S(=O)(=O)N2CCCC2)cc1	-0.2	·	0.73	8.7	1.7	-19	-1
CC1(c2ccc3ccccc3c2)NC(=O)N(CC(N)=O)C1=O (centres undefined)	-1.9	i	0.62	-3.4	1.4	-1	·
O=C(Cc1ccccc1F)Nc1nc(-c2ccc(F)c(F)c2)cs1	-0.4	i	0.62	-1.8	5.5	5	·
Cc1c(OCC(=O)Nc2cccnc2)ccc2c3c(c(=O)oc12)CCC3	0.1	i	0.74	0.1	-27	8	50
COc1ccc(C(=O)NCC(=O)OCc2ccc(Br)cc2)cc1	4.5	i	0.69	0.9	1.4	13	-5
COc1ccc(NC(=O)C2CC2)cc1OC1CCCC1	-1.0	·	0.69	-6.1	1.5	-10	-8
CC(C)Nc1nc(Oc2ccc(=O)n(-c3ccccc3)n2)nc(N(C)C)n1	-35	·	0.69	-1.3	2.7	-2	2
CCCCCCc1nnc(N)s1	-1.2	i	0.64	-2.2	0.1	0	-4
Cn1c(CN2CCCCC2)nc2cc(NC(=O)c3ccccc3)ccc21	1.8	·	0.69	1.9	-3.5	5	-1
Remaining list, next part:
SMILES	HNF4A DNA FP	FGF22 binding	Ecoli growth	LANA-H2B inh	UCH37 DUB inh	B2AR ag	ALR inh
COc1ccc(Nc2nc(Cl)nc(Nc3ccc(OC)cc3OC)n2)c(OC)c1	-1.4	i	0.67	6.6	2.9	13	-16
CCc1sc(C(=O)Nc2ccc3nc(C)sc3c2)cc1C	2.0	i	0.64	1.4	3.7	19	53
Cn1c(Oc2ccc(Cl)cc2)c(C=O)c2ccccc21	-2.0	·	0.69	-2.5	-1.6	0	0
COC(=O)Cc1nc2ccccc2[nH]1	2.6	·	0.71	2.0	0.2	1	21
COc1cc(C2CC(=O)Nc3ccccc3S2)cc(OC)c1OC (centres undefined)	1.2	·	0.7	2.2	2.9	32	·
CCC(C)(C)NC(=O)c1ccc(Sc2nncn2C)c([N+](=O)[O-])c1	1.8	i	0.7	2.5	2.1	0	-20
CO/N=C\Cc1oc(=O)c(NC(=O)c2ccccc2)cc1C(=O)OC	1.7	·	·	-4.7	·	-1	3
Cc1c(C(=O)N2CCCC(C)C2)sc2ncnc(N3CCCCC3C)c12 (centres undefined)	-1.0	i	0.69	-1.3	5.2	5	2
Cc1ccc(CN2CCN(C(=O)CCC(=O)Nc3nnc(C(C)C)s3)CC2)c(C)c1	-2.5	i	0.65	-2.5	1.1	-9	-7
Cc1ccc(SCCNC(=O)CN2C(=O)c3ccccc3S2(=O)=O)cc1	0.5	·	0.74	3.7	1.2	-1	-2
S=C(NCc1cccnc1)Nc1cc(Cl)cc(Cl)c1	2.0	i	0.56	-2.6	2.6	1	-3
CCCn1c2ccccc2c2cnn(CC(=O)O)c(=O)c21	4.3	i	0.67	2.2	-8.3	0	-4
COc1ccc(C(=O)Cn2c(=O)c(CCC(=O)O)nn3c4ccccc4nc23)cc1OC	-1.9	·	0.71	-0.7	-0.1	1	-1
Cc1sc(NC(=O)CCl)c(C(=O)c2ccccc2)c1C	-1.4	·	0.66	-5.2	3.4	-3	99*
CC1=C(C(=O)OC(C)C)C(c2ccccc2Cl)CC(=O)N1 (centres undefined)	-0.4	·	0.72	-5.8	-0.5	-8	-5
Brc1ccc(-c2nnc3ccc(Nc4ccccc4)nn23)cc1	·	·	0.67	0.5	-13	·	0
Cc1ccccc1CC(=O)N1CCN(S(=O)(=O)c2cccs2)CC1	-6.5	i	0.69	-2.0	4.3	3	-2
O=S(=O)(c1cccc(Cl)c1Cl)N1CCCCC1	5.0	·	0.71	1.3	1.1	1	7
CC(=O)N1c2ccccc2S(=O)(=O)c2ccccc21	-1.7	i	0.66	-0.9	-1.2	-1	8
O=C(COc1cccc(NC(=O)c2ccccc2)c1)c1ccc(F)cc1	0.1	i	0.7	0.2	-0.2	-5	0

Quoted at random: five compounds from above, in no set order.
SMILES	HNF4A DNA FP	FGF22 binding	Ecoli growth	LANA-H2B inh	UCH37 DUB inh	B2AR ag	ALR inh
Cc1sc(NC(=O)CCl)c(C(=O)c2ccccc2)c1C	-1.4	·	0.66	-5.2	3.4	-3	99*
O=S(=O)(c1cccc(Cl)c1Cl)N1CCCCC1	5.0	·	0.71	1.3	1.1	1	7
COc1ccc(Nc2nc(Cl)nc(Nc3ccc(OC)cc3OC)n2)c(OC)c1	-1.4	i	0.67	6.6	2.9	13	-16
CCCn1c2ccccc2c2cnn(CC(=O)O)c(=O)c21	4.3	i	0.67	2.2	-8.3	0	-4
Cc1ccccc1CC(=O)N1CCN(S(=O)(=O)c2cccs2)CC1	-6.5	i	0.69	-2.0	4.3	3	-2

An excerpt; count on the stated rates, not on these rows.
